# High-throughput results as filed in PubChem.
# ALR H2O2 inh – blocks human ALR sulfhydryl oxidase activity | purified ALR, DTT oxidation, H2O2 HRP-luminol luminescence | inhibition, % (no concentration beside the values) | hit rate 3.8% among 290,000;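 active = mean and each replicate at 75% or more; inconclusive = only one of the two met; inactive = neither met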;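 note: stock transfer was 7.5 nL into about 7.5 µL; 0% = neutral wells and 100% = wells with inactivated enzyme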
# Target sequence (P55789 whole entry, looked up): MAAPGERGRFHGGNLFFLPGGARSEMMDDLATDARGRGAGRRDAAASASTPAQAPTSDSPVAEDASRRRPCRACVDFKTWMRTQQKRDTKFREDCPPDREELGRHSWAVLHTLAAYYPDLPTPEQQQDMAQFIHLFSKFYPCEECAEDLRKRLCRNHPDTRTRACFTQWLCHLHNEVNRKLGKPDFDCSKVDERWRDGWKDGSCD
# RanGTP-Impb inh – disruptors of Ran-importin-beta complex formation – biochemical, FRET, CFP-Ran, YFP-importin-beta, homogeneous, primary screen; cell-free CFP-Ran/YFP-importin-beta FRET ratio; inhibition, % (no concentration beside the values); hit rate 1.1% among 300,000; AID 2216;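 active = most replicates above 15%; inconclusive = exactly half above 15%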;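 note: 0% = DMSO wells and 100% = Ran loaded with GDP instead of GTP; wells of about 40 µL received 100 nL stock; the first replicate is given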
# B2AR ag – activates human beta-2 adrenergic receptor causing internalization; hit rate 0.43% among 340,000; Am2.2-beta2AR cells, FAP receptor internalization, flow cytometry; reference of the scale not given here; P07550; AID 504454; response, % (test concentration not listed);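 active = response above a set limit, near 3 SD of response in nonfluorescent compounds, cut at about 42% in these data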;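 note: stock transfer was 100 nL into about 11 µL; a reference agonist was the positive control; negative values mostly stem from fluorescent compounds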
# Target sequence (P07550 whole entry, looked up): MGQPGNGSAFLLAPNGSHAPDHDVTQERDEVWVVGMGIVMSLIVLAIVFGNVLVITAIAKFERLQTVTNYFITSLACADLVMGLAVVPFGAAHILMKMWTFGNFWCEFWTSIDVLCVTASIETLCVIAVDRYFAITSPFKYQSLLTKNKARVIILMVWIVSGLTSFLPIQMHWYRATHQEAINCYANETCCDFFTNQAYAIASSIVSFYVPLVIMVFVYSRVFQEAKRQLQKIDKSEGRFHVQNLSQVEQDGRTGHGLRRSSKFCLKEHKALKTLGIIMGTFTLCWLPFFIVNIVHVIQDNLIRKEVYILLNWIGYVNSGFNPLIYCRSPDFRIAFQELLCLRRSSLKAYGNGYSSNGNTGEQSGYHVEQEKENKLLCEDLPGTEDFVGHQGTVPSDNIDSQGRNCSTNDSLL
# Vif A3G – inhibitors of Vif binding to APOBEC3G peptide, primary screen, biochemical, TR-FRET, GST-Vif 1-94, biotin-A3G peptide, dose response retest (AID 1117319); one-dose inhibition, %; IC50 in µM for titrated hits; TR-FRET GST-Vif / biotin-A3G peptide binding; higher % means a stronger effect; test concentration not given here; strong numbers were not always called active; hit rate 0.57% among 260,000;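 active = above the screen mean plus three standard deviations and confirmed in dose response; inconclusive = results disagree or hit not tested in dose response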;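 note: Vif residues 1-94 fused to GST binding biotinylated APOBEC3G peptide 110-148; 0% = full assay without inhibitor and 100% = GST in place of GST-Vif; retest series ran down from 100 µM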
# LANA-H2A inh – blocks KSHV LANA binding to histone H2A/H2B. inhibition, % (no concentration beside the values). hit rate 0.6% among 320,000. cell-free LANA-H2A/H2B peptide, fluorescence polarization; in the data active = inhibition mostly above about 10%, no sharp cut-off; inactive = mostly below about 6.7%;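 note: stock transfer was 7.5 nL into about 10 µL; 0% = median of vehicle wells and 100% = median of positive control wells; one replicate is shown; the record names a cut of 25% in any replicate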
# HNF4A DNA FP – change in binding of human HNF4 alpha to DNA; hit rate 0.3% among 360,000; P41235; HNF4a-FITC DNA binding, fluorescence polarization, 1 h; activity change, % at 10 µM; AID 1224865; in the data active = activity change above about 30%, passing the limit was not always enough;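 note: controls were the assay level and a saturating level of protein; the project sought stronger binding though the title names inhibitors; some compounds called inactive have numbers as strong as hits; positive values seem to mean higher polarization but the record does not say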
# Target sequence (P41235 whole entry, looked up): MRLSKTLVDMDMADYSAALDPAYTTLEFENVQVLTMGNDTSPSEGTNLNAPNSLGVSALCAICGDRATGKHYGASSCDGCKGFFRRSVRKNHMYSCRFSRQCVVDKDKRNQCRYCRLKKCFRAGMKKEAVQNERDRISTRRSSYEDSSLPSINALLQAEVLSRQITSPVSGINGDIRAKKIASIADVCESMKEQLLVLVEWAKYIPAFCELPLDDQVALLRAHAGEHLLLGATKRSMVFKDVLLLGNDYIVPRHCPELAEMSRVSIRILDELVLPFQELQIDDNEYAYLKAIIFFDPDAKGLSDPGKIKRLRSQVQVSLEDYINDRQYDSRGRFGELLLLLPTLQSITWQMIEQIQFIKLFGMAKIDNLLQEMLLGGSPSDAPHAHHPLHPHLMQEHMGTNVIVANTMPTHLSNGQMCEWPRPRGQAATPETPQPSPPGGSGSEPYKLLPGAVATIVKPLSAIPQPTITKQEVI
# Calb FLC – affects C. albicans growth with fluconazole; C. albicans CaCi-2 (fluconazole-resistant clinical isolate) + fluconazole, Alamar Blue growth, 48 h; growth inhibition, % (no concentration beside the values); hit rate 0.57% among 300,000;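 active = most replicates above 75%; inconclusive = exactly half above 75%; inactive = most below 75%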;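 note: all wells also contain fluconazole at 8 µg/ml as a sub-toxic cotreatment; 0% = median of DMSO wells and 100% = median of geldanamycin control wells; wells of about 8 µL received 7.5 nL stock; the first replicate is given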
# Starred values were filed as active, the others as inactive; i = inactive; ? = inconclusive; . = no result given.
SMILES,ALR H2O2 inh,RanGTP-Impb inh,B2AR ag,Vif A3G,LANA-H2A inh,HNF4A DNA FP,Calb FLC
CC1CCN(C(=O)CCC(=O)N2CC(C)Oc3ccccc32)CC1 (stereo not given),1,2.1,4,.,3.3,1.2,11
CCOc1ccc(/C=C2\SC(=O)N(CCNC(=O)C3COc4ccccc4O3)C2=O)cc1OC (stereo not given),-2,2.9,13,.,0.1,1.7,0
COc1cc(C2Nc3ccc4ncccc4c3C3=C2C(=O)CCC3)cc(OC)c1OC (stereo not given),-10,?,-17,.,1.0,0.0,15
O=C(/C=C/c1ccccc1)N(c1ccccn1)C1CCCCC1,-4,0.2,27,5%,3.3,-2.7,0
O=C(CC1Nc2ccccc2NC1=O)Nc1ccc2c(c1)OCO2 (stereo not given),13,-0.1,-8,.,1.5,-2.0,1
O=C(c1nc(-c2ccccc2)n(-c2ccccc2)n1)N1CCN(S(=O)(=O)c2ccccc2)CC1,-3,-2.3,11,2%,-2.0,-1.3,25
O=C(Cn1cnc2c(NCc3ccccc3)ncnc21)N1CCN(c2ccccn2)CC1,.,.,6,3%,.,0.7,.
c1ccc2c(c1)CCN2CCN1CCc2ccccc21,-15,4.9,-1,-4%,-6.3,1.7,-25
CCC(C)N(C(=O)CSc1nnc(-c2ccco2)n1C)C1CCS(=O)(=O)C1 (stereo not given),-4,2.3,-3,-2%,-0.9,2.7,4
O=C(C1CCN(S(=O)(=O)c2ccc3ccccc3c2)CC1)N1CCN(c2ncccn2)CC1,1,2.4,-5,-6%,3.7,0.6,.
CCCCNC(=O)C1CCC(CNS(=O)(=O)c2ccc(C)cc2)CC1 (stereo not given),-3,3.1,-4,18%,1.6,-0.5,21
O=C(O)C1CCCN1C(=O)Oc1ccccc1 (stereo not given),-6,1.9,4,14%,0.1,5.4,-23
COC(=O)c1ccc(C2NCCc3cc(OC)c(OC)cc32)cc1 (stereo not given),1,-4.2,-13,2%,-0.6,0.2,-4
COc1ccc(C(=O)N2CCN(CCNC(=O)C(=O)Nc3ccc(Br)cc3)CC2)cc1,-18,0.9,-10,-1%,0.8,2.6,-2
COc1ccc(C2=NN(C(=O)CCC(=O)O)C(c3ccc(Br)cc3)C2)cc1 (stereo not given),2,2.7,2,.,-0.8,1.8,14
CC(=O)N1CCN(c2ccc(NCc3cccc(C)c3)cc2)CC1,99*,.,0,.,-4.0,-3.9,.
COC(=O)n1c(=O)oc2ccc(S(=O)(=O)N3CCCCC3)cc21,21,1.4,-4,-6%,0.0,-2.1,0
CC(C)OC(=O)NC(Nc1ccccc1C(=O)O)(C(F)(F)F)C(F)(F)F,-5,2.1,9,2%,-13,1.8,-4
Cc1ccc(CNC(=O)c2cccnc2Sc2cccc(Cl)c2)cc1,2,3.1,0,2%,-3.3,2.1,21
Cc1cc(=O)n2c3ccccc3n(CC(O)CN3CCOCC3)c2c1C#N (stereo not given),.,130*,-8,-7%,0.2,-1.5,13
CCOC(=O)C1=C(C(F)(F)F)Nc2ncnn2C1c1cc(OC)c(OC)cc1OC (stereo not given),.,-1.2,1,.,-7.2,3.5,-17
NS(=O)(=O)c1ccc(CNC(=O)c2cc(-c3ccccn3)nc3ccc(Cl)cc23)cc1,-8,2.8,-7,-65%,1.0,-3.7,1
CN(C)c1ccc(/C=N/NC(=O)c2ccccc2Cl)cc1,98*,-1.1,-5,11%,4.8,-0.6,?
COc1ccc(C(=O)NC(C)CCCC(C)(C)O)cc1OC1CCN(C(C)=O)CC1 (stereo not given),2,0.4,7,-3%,1.3,-0.8,-3
Fc1ccccc1Sc1ccccc1CNC1=NCCN1,-4,-0.9,-2,0%,-0.9,-0.1,-15
CC(C)(C)NS(=O)(=O)c1ccc2nc(NC(=O)c3ccc(N4C(=O)CCC4=O)cc3)sc2c1,4,5.5,-5,-6%,2.4,2.9,3
Cc1ccc(S(=O)(=O)N2CCCC(c3nc4c(nnn4Cc4ccc5c(c4)OCCO5)c(=O)[nH]3)C2)cc1 (stereo not given),-1,-1.2,6,20%,-3.6,2.6,3
O=C1CC(c2ccccc2)CC(O)=C1C=NCCN1CCN(C(=S)Nc2cccc(Cl)c2)CC1 (stereo not given),-2,8.0,-9,?,0.8,0.5,7
N#CC1=C(S)N=C(N)C(c2nc(-c3ccccc3)cs2)C12CCCCC2 (stereo not given),-3,0.3,14,14%,2.4,12,-5
CCCCn1c(N)c(N(CC(C)C)C(=O)c2cc(Cl)nc3ccccc23)c(=O)[nH]c1=O,0,-0.9,1,-1%,2.1,2.5,.
CCCCNc1ccc(S(=O)(=O)c2cccc([N+](=O)[O-])c2)cc1[N+](=O)[O-],.,0.4,-5,?,2.5,2.2,24
COc1ccccc1-n1c(-c2ccco2)n[nH]c1=S,.,0.1,-5,-3%,-1.6,-3.1,-6
COc1ccc(/C=C/C(=O)NCc2nc3ccccc3[nH]2)cc1OC,-11,0.5,-4,-2%,-0.2,1.2,15
O=C(CSc1nnc(NC2CC2)s1)NN1C(=O)NC2(CCCCC2)C1=O,30,.,-2,-14%,7.3,-1.4,.
Cc1ccc(-c2cc(C(=O)O)n[nH]2)s1,-3,-0.6,7,27%,-1.0,-4.5,3
O=C(NC1CCCCC1)c1ccc(-c2ccccc2)cc1,1,1.1,2,.,12,0.7,33
COC(=O)CSc1cccc2c1C(=O)CC2c1ccccc1 (stereo not given),-4,-2.4,-4,-2%,2.5,3.8,-7
Cc1cccc(NS(=O)(=O)c2cc(C(=O)N3CCCC3)ccc2Cl)c1,25,-2.2,-2,.,-1.4,-0.2,6
O=c1[nH]c(/C=C\c2cccc(O)c2)nc(O)c1[N+](=O)[O-],40,-5.0,-2,.,-5.9,-2.0,0
Clc1ccc(CONc2ncnc3nonc23)c(Cl)c1,0,.,6,2%,-1.6,2.4,76*
COc1ccc(CNCCC(c2ccc(OC(C)C)cc2)c2ccccc2OC)cc1 (stereo not given),-22,-5.4,28,.,-4.3,2.3,15
Cc1cccc(C)c1OCC(=O)NNC(=O)c1ccoc1C,-4,-1.6,7,10%,-0.6,0.5,-9
Cc1ccc(CN(C(=O)CNC(=O)c2cccs2)C(C(=O)NCC2CCCO2)c2ccccc2)cc1 (stereo not given),-3,8.4,-10,17%,5.0,0.6,5
COC(=O)c1nnn(CC(=O)Nc2cc(Cl)ccc2C)c1C(=O)OC,-4,4.6,15,6%,-0.7,-1.8,-3
CC(=O)c1c(C(C)=O)c(C)n(NC(=O)c2ccncc2)c1C,-10,-0.2,3,7%,2.1,2.4,25
COC(=O)C1=C(C)N(c2cccc3ccccc23)C(=O)C1,-33,2.4,5,?,-1.3,4.1,22
COC(=O)c1ccccc1NC(=O)CSc1nc(N)cc(=O)[nH]1,2,-0.4,6,?,3.4,-13,-8
O=C(COC(=O)c1cccs1)NCc1ccco1,6,-2.4,1,.,4.1,-8.1,-14
O=C(COc1ccc(Br)cc1)Nc1ccccc1C(=O)N1CCOCC1,-1,-1.0,-6,.,-2.8,-1.3,6
COc1ccc(-c2ccnc3c(C(=O)O)cnn23)cc1,-5,?,-4,-8%,-0.2,1.0,5
O=C(COc1ncnc2ccccc12)N1CCN(S(=O)(=O)c2ccc(Cl)cc2)CC1,-1,?,-1,1%,3.1,-1.9,-3
COc1cc(/C=C/C(=O)OCc2c(C)noc2C)ccc1OC(F)F,.,2.9,10,.,0.5,0.8,4
COc1ccccc1N(C)S(=O)(=O)c1ccc(C(=O)Nc2ncc(C)s2)cc1,0,.,-4,.,4.1,6.0,.
CC(C)n1ncc2c(C(=O)N3CCN(Cc4ccc(Br)s4)CC3)cc(C3CC3)nc21,-3,.,6,2%,2.6,-3.1,.
Cc1nn(C)c(C)c1CN(C(=O)CCc1nnc(Cc2c[nH]c3ccccc23)o1)C(C)C,-8,1.4,0,9%,1.9,-2.5,-8
CCOC(=O)CN(C(=O)COC(=O)C1(c2ccccc2)CC1)c1ccc(F)cc1,-19,-1.4,-1,0%,15,0.7,-13
C=CC[C@H](CC(=O)NCCO)C(=O)N[C@@H](C)COC(=O)[C@H](CC=C)CC(=O)OC(C)(C)C,1,.,3,-1%,i,1.8,.
Cc1c(C)c2cc3c4c(oc3c(C)c2oc1=O)CCCC4,-19,?,-3,-1%,0.7,-5.0,-4
O=C(CCc1ccc(Oc2cc([N+](=O)[O-])cc([N+](=O)[O-])c2)cc1)N1CCCCC1,-18,-1.8,-1,0%,1.5,12,6
CSCCC(NC(=O)COc1ccccc1)C(=O)N1CCCCC1 (stereo not given),-12,-2.8,-2,.,2.5,1.5,1

# Quoted at random: 6 entries already listed.
SMILES,ALR H2O2 inh,RanGTP-Impb inh,B2AR ag,Vif A3G,LANA-H2A inh,HNF4A DNA FP,Calb FLC
COC(=O)C1=C(C)N(c2cccc3ccccc23)C(=O)C1,-33,2.4,5,?,-1.3,4.1,22
COC(=O)c1ccccc1NC(=O)CSc1nc(N)cc(=O)[nH]1,2,-0.4,6,?,3.4,-13,-8
CSCCC(NC(=O)COc1ccccc1)C(=O)N1CCCCC1 (stereo not given),-12,-2.8,-2,.,2.5,1.5,1
COc1ccc(-c2ccnc3c(C(=O)O)cnn23)cc1,-5,?,-4,-8%,-0.2,1.0,5
O=C(COC(=O)c1cccs1)NCc1ccco1,6,-2.4,1,.,4.1,-8.1,-14
COc1cc(/C=C/C(=O)OCc2c(C)noc2C)ccc1OC(F)F,.,2.9,10,.,0.5,0.8,4

# Other structures follow:
SMILES,ALR H2O2 inh,RanGTP-Impb inh,B2AR ag,Vif A3G,LANA-H2A inh,HNF4A DNA FP,Calb FLC
Cc1ccc(NC(=O)CCSc2ccccc2)c(C)c1,3,-0.7,-4,.,-0.1,-1.5,-10
CCCCCCCCCCn1cc(C(C)=O)c(=O)[nH]c1=O,-2,-4.0,2,8%,-3.2,-0.7,1
CCCCOc1ccc(/C=C/C(=O)NC2=Nc3ccccc3NC(C)=C2C(=O)OCC)cc1OC,-3,-2.7,7,-19%,-7.7,8.5,-10
O=C(CNC(c1ccccc1)c1ccccc1)Nc1c(F)cccc1F,.,-2.8,-1,3%,2.7,-1.4,-8
CCS(=O)(=O)c1ccc(-c2cccc(NC(=O)COc3ccc(Cl)cc3)c2)nn1,0,?,3,6%,-2.6,-2.6,57
CN(C)CCCN(C(=O)COc1ccccc1)c1nc2ccc(F)cc2s1,26,-3.4,-3,-5%,-3.7,-3.3,-8
NC(=S)N/N=C/c1c[nH]c2ccc(OCc3ccccc3)cc12,99*,?,-10,.,0.4,2.2,15
CC(=O)N=c1sccn1CC(=O)c1ccc([N+](=O)[O-])cc1,-15,-1.4,0,3%,4.8,4.3,-4
CCCOc1ccccc1OCC(=O)Nc1cccc(S(=O)(=O)NC2=NCCC2)c1,.,.,9,1%,.,3.2,.
CC(C)(C)N(Cc1ccccc1)C(=O)COC(=O)C1CC1,-1,.,-7,-3%,1.3,3.0,.
O=C1CCCC(=O)N1c1ccc(N2CCOCC2)c([N+](=O)[O-])c1,-1,-4.3,-1,.,3.4,0.2,0
COc1ccc(CCNC(=O)CCCC(=O)n2nc(C)c3ccccc32)cc1OC,-8,1.6,6,.,0.1,1.6,8
O=C(Cn1c(=O)n(-c2ccccc2)c(=O)c2sccc21)NCc1ccccc1,.,3.0,-12,-10%,7.5,0.0,3
O=C1NN(c2ccc(F)cc2)C(=O)/C1=C/c1cccs1,26,-0.8,5,12%,4.6,-0.5,101*
CC(C)[C@H](NC(=O)NCc1cccs1)C(=O)O,-25,1.4,-8,5%,0.5,-2.4,-4
O=C(CNCc1ccco1)Nc1ccc(N2CCCCCC2)cc1,99*,0.8,-4,5%,-3.1,5.8,3
O=C(Nc1ncccc1Cl)C(Sc1ccccc1)c1ccccc1 (stereo not given),0,3.5,-7,-7%,0.5,-4.5,-6
